gsp antag = antagonizes gsp, the McCune-Albright syndrome mutation | gsp-mutant cells, cAMP HTRF, 30 min; control for the full effect not named in the record | Potency, µM (series often up to 76.9 µM), for inactives: at the top dose activity change, negative = inhibition, actives largely listed as inhibitors | hit rate 0.4% among 340,000; active = falling curve of any shape with a large fitted effect; inconclusive = falling curve, mostly with a smaller effect; inactive = flat or rising curve; cell line not stated here;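 further: intracellular cAMP measured with PDE inhibitor Ro 20-1724 present during compound exposure; potency means the concentration at half of the fitted maximal effect; on the % scale 0 is the no-effect control and ±100 the full control effect; nearly all actives have a fitted effect of over 65% in size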
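Cells, 2000/well, grown 16–24 h in DMEM 10% FBS with 0.5 mg/ml G418, then compounds plus […] (300 uM addition stock), 30 min at 37C. cAMP read by HTRF (cAMP-d2 and anti-cAMP antibody-K in lysis buffer) after 30 min RT.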
TRPML1 blocker = blocks the human TRPML1 channel | Q9GZU1 | TRPML1-inducible cells, Ca2+ dye fluorescence, FDSS; stronger effect = lower value; inhibition of EC80 agonist-evoked calcium signal | activity change, negative = inhibition, % (test concentration not listed) | hit rate 0.02% among 390,000 | AID 624415; in the data active means activity change below about -50%; inconclusive means about -30% to -50%; inactive means above about -30%;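 further: stimulus is agonist 54-4 at its EC80 concentration; on the % scale 0 is the no-effect control and ±100 the full control effect; compound concentration not given in the record; the text of the record puts the active cut at -80%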
Target sequence (Q9GZU1 whole entry, looked up): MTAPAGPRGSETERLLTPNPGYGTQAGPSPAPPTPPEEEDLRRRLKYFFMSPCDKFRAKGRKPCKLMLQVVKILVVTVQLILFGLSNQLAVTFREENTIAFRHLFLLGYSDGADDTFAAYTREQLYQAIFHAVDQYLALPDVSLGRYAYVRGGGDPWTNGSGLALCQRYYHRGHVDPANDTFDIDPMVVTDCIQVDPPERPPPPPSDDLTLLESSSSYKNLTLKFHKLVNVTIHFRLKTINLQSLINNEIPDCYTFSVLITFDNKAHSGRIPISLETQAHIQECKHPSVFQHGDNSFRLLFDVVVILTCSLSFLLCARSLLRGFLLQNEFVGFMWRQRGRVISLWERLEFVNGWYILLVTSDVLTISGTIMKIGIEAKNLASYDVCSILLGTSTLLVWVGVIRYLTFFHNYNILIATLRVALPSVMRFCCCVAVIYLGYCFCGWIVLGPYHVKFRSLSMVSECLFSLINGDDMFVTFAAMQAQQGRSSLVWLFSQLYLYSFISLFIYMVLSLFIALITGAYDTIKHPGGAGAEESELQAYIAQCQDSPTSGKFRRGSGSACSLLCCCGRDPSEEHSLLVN
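TRPML1-DL cells, Tet-induced overnight (~16 h, 37 °C) at 1,500 cells/well, were loaded with Ca8 no-wash dye plus quencher for 45-90 min at room temperature. Compounds were pinned during FDSS kinetic reading; agonist 54-4 at EC80 (4 uM final) then added.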
gsp ag = gsp mutant agonism. gsp mutant cells, cAMP HTRF, 30 min; control for the full effect not named in the record. hit rate 0.13% among 340,000. Potency, µM (doses to about 76.9 µM), inactives show top-dose activation (cAMP increase), most hits filed as activators; active = well fitted activation curve with a large enough effect; inconclusive = small, poorly fitted or top-dose-only effect, or another doubt; inactive = no such curve, though single readings can be large or run the other way; cell line not stated here;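 further: phosphodiesterase inhibitor Ro 20-1724 added with compounds to block cAMP breakdown; potency means the concentration at half of the fitted maximal effect; nearly all actives have a fitted effect of over 60% in size; about a fifth of the inactives were tested at one dose only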
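Cells in DMEM/10% FBS with G418 were pretreated with compounds in DMSO plus […] (300 uM stock) for 30 min at 37C. cAMP was measured by HTRF (cAMP-d2 plus anti-cAMP antibody-K) after 30 min at room temperature.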
TRPML1 agonist = human mucolipin-1 channel agonism. AID 624414. TRPML1-expressing cells, Ca2+ dye fluorescence, FDSS; host cell line not named in the record; reference of the full effect not given here. Q9GZU1. hit rate 0.12% among 410,000. activation, % (no concentration beside the values); in the data active = activation above about 50%; inconclusive = about 30% to 50%; inactive = below about 30%; further: 0% is about no effect; the text of the record puts the active cut at 80%
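Cells: TRPML1-DL, 1X Tet inducer, ~16 h at 37 degrees C/5% CO2. Dye: ABD Ca8 no-wash + quencher, 45-90 min RT. Read: 10 s baseline, compound add, 110 s agonist phase; 54-4 EC80 (4uM final), 110 s antagonist phase.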
ClpP mod = qHTS Assay for Activators of ClpP; Potency, µM (titrated, usually from 57.5 µM), inactives show top-dose activity change, negative = active; AID 651965, 2013; purified B. subtilis ClpP, FRET peptide cleavage, 20 min; hit rate 1.9% among 340,000; active = well fitted falling curve with a large enough effect; inconclusive = small, poorly fitted or top-dose-only effect; inactive = no such curve, though single readings can be large or run the other way; further: potency means the concentration at half of the fitted maximal effect; the source files actives as falling curves though it sought activators and does not explain the sign; nearly all actives have a fitted effect of over 65% in size; many hits overshoot -100%
Target sequence (P80244 whole entry, looked up): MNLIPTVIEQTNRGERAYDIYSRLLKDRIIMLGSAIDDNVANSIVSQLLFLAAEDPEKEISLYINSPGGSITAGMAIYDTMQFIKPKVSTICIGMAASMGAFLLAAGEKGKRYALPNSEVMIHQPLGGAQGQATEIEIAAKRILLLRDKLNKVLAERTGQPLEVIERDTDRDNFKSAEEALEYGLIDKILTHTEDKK
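FRET quenching reversal measured ClpP activation: 10 microg/mL B. subtilis ClpP at pH 8 with the FRET-FV decapeptide, read at 430 nm after 320 nm excitation. The 20-min minus 0-min signal was scaled between DMSO/no-enzyme wells and ADEP (5.8 microM final).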
Menin-MLL FL inh = displaces fluorescein MLL peptide from human menin. Fluorescence polarization, fluorescein-MLL peptide displacement from menin. FP activity change, % at 61.4 µM. 290,000 tested, under 10 active. AID 1766; inconclusive = falling polarisation curve, or a change in total fluorescence; inactive = total fluorescence flat and polarisation flat or rising; no compound was filed as active; the % refers to the polarisation; negative = inhibition;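 further: % of control where 0% means no effect; inhibitors lower the polarisation; unlabelled MLL peptide was the positive control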
Numbers without * were called inactive; ? = inconclusive; nt = no result given; & = joins results of further samples; [ ] = another dose, or the depositor's remark.

cpd	smiles	gsp antag	TRPML1 blocker	gsp ag	TRPML1 agonist	ClpP mod	Menin-MLL FL inh
1	CCS(=O)(=O)Nc1ccc(C2=NN(C(=O)c3ccco3)C(c3ccco3)C2)cc1 (stereo unspecified)	?	16.3	-53.8%[inhibitor]	0.9	-4.3%	nt
2	Cc1nnc(NC(=O)CCN2C(=O)/C(=C\c3ccccc3)SC2=S)s1	-3.4%	21.0	23.5%	-0.4	0.3%	1.4
3	Clc1cccc(OCCN2CCN(CCOc3cccc(Cl)c3)CC2)c1	0.1%	8.7	20.4%	1.6	nt	1.7
4	Cc1nc(-c2cccc(NC(=O)Cc3ccccc3)c2)cs1	-5.9%	-10.8	9.4%[15.4 µM]	0.6	-16.9%	-1.5
5	Cc1ccc(Cl)cc1NC(=O)Cn1c(SCC(=O)NCc2ccccc2)nc2ccccc21	nt	-5.4	nt	-0.9	2.9%	nt
6	Cn1c(-c2sccc2OCc2cccc(C(F)(F)F)c2)n[nH]c1=S	-19.3%	-5.1	10.2%[15.4 µM]	0.5	nt	-0.5
7	Nn1cnn(Cc2ccccc2)c1=S	4.0%	3.3	0.0%	1.3	-5.1%	-3.2
8	Cc1ccc(NC(=O)c2ccc3c(c2)C(=O)N(c2ccccc2C)C3=O)nc1	-3.3%	-12.9	-2.8%	1.9	-2.9%	nt
9	CC(C)C(OC(=O)c1ccco1)C(=O)NC1CCCCC1 (stereo unspecified)	7.7%	9.2	-10.0%[15.4 µM]	0.2	-1.6%	-3.9
10	COC(=O)c1cccc(C23CC4(C2)[C@H](CN(Cc2ccc(C(F)(F)F)cc2)[C@@H]4c2ccccc2)C3c2ccc(Cl)nc2)c1 (stereo partly specified)	4.3%	12.2	nt	-0.1	-2.6%	1.1&1.8
11	COC(=O)Cn1cnc2sc3c(c2c1=O)CCCC3	-2.6%	10.5	14.6%[15.4 µM]	-0.4	nt	-0.6
12	Cc1ccc(S(=O)(=O)NC(=O)c2cc(C)n(CC(c3ccccc3)N(C)C)c2C)cc1 (stereo unspecified)	3.8%	-5.3	-57.8%[inhibitor]	0.7	-4.6%	-0.2
13	Cc1nc2oc3ccccc3c(=O)c2c(=O)n1Cc1ccccc1	4.4%	8.8	10.6%	-0.2	-0.9%	0.9
14	CN(C)c1ccc(C(CNC(=O)c2ccccc2)c2c[nH]c3ccccc23)cc1 (stereo unspecified)	?	11.0	6.4%	7.1	-0.5%	7.1
15	Cc1ccccc1NC(=S)N1CCN(c2ccccc2)CC1	-2.0%	-11.5	-11.4%	-0.4	nt	-3.3
16	O=C1CCSc2ccc(S(=O)(=O)Nc3ccc(Cl)c(C(F)(F)F)c3)cc2N1	nt	-9.3	nt	1.7	1.2%	nt
17	CSc1ccc(-c2nnn(Cc3ccc(C)cc3)n2)cc1	5.4%	46.4	-0.4%	2.0	-4.7%	0.6
18	COc1ccc2nc(N(CCN(C)C)C(=O)c3ccc(C(=O)c4ccccc4)cc3)sc2c1	-2.5%	-19.9	-75.2%[inhibitor]	0.4	0.0%	-3.4
19	COc1ccc(C(=O)O/N=C(\N)Cc2cccs2)cc1OC	13.8%	-0.3	-59.2%[inhibitor]	0.3	1.4%	nt
20	Cc1cccc(C)c1Nc1c(-c2ccccn2)nc2ccc(Cl)cn12	nt	2.6	nt	2.3	-0.9%	nt
21	CN(C)c1ccc(-c2cccc(C3CC=CC4C3C(=O)N(Cc3ccccc3)C4c3ccc(C(F)(F)F)cc3)c2)cc1 (stereo unspecified)	-0.1%	-0.1&41.4	nt	0.5&-0.4	-6.8%	9.2&10.4
22	CCc1nnc(NC(=O)CCc2ccccc2OC)s1	3.7%	5.1	14.9%[15.4 µM]	0.8	nt	-5.3
23	O=C1[C@H](O)[C@@H](O)C(=O)N1Cc1ccccc1	-11.7%	4.2	-0.2%[15.4 µM]	-0.7	-1.0%	-13.8
24	COc1ccc(C(C(=O)NC(C)(C)C)N(C(=O)CCC(=O)Nc2cc(C)on2)c2cccc(C)c2C)cc1 (stereo unspecified)	9.5%	-2.9	-18.1%[15.4 µM]	-0.7	-0.2%	-4.6
25	O=C(Nc1cccnc1)c1ccc(Cl)c([N+](=O)[O-])c1	nt	13.0	10.3%[15.4 µM]	-0.1	nt	-3.7
26	C[C@@H]1CN([C@@H](C)CO)C(=O)c2cc(Br)cnc2O[C@H]1CN(C)C(=O)NC1CCCC1	nt	5.6	?	0.3	0.6%	nt
27	CC(NC(=S)Nc1ccc(S(=O)(=O)N2CCOCC2)cc1)C1CC2CCC1C2 (stereo unspecified)	-0.6%	-10.0	23.7%	0.2	-2.0%	1.6
28	CC1CCC(NC(=O)Cn2c3c(c(-c4ccccc4Cl)cc2=O)CCC3)CC1 (stereo unspecified)	-31.3%	-5.1	-56.7%[inhibitor]	0.3	3.8%	0.0
29	S=C(NCc1ccco1)Nc1ccc(Oc2ccccc2)cc1	-24.4%	5.5	1.2%	0.9	0.3%	6.3
30	CC1CCCN(c2ncnc3c2cnn3-c2ccc(Cl)cc2)C1 (stereo unspecified)	-16.6%	-1.9	-4.0%	-0.8	-16.1%	3.3
31	N#CC1=C(N)c2ccccc2CC12CCCCC2	-3.4%	-2.2	-0.2%	1.9	-3.5%	0.7
32	COc1ccc(N(C(=O)c2cc(OC)c(OC)c(OC)c2)S(=O)(=O)c2ccc(C)cc2)cc1	nt	-1.9	nt	1.2	-10.0%	nt
33	Cc1ccc(S(=O)(=O)c2c(COC(=O)c3ccc(Cl)cc3)c(-c3ccccc3)nn2C)cc1	-6.7%	-12.9	?	-1.1	-1.8%	0.8
34	COc1ccc2c(c1)c(=O)c(S(=O)(=O)c1ccc(C)cc1)cn2Cc1ccccc1C	nt	6.0	nt	-0.4	3.6%	nt
35	CC1=NCCN1S(=O)(=O)c1c(C(C)C)cc(C(C)C)cc1C(C)C	-6.3%	-3.8	0.6%	0.7	nt	1.0
36	O=[N+]([O-])c1nn(-c2ccccc2)[n+]([O-])c1N1CCN(c2ccccc2F)CC1	-1.9%	-18.5	-26.0%	1.7	-3.4%	-5.2
37	O=S(=O)(Nc1ccc(-c2ccccc2)cc1)c1ccccc1	-10.3%	-6.5	-3.9%[15.4 µM]	0.6	-0.7%	nt
38	O=C1CC(Cc2ccccc2)C(=O)N1c1ccc(Cl)cn1 (stereo unspecified)	6.5%	9.5	-19.2%	-0.6	1.9%	-1.3
39	O=C(NC1CCCC1)C1CCC(=O)N1C1CCCC1 (stereo unspecified)	-1.7%	2.7	7.7%	0.8	-1.8%	7.1
40	COc1ccc(OC)c(NC(=O)c2ccc(NS(C)(=O)=O)cc2)c1	-12.5%	12.2	19.9%	-0.1	0.1%	2.3

Pulled by compound from the entries so far (2):
cpd	smiles	gsp antag	TRPML1 blocker	gsp ag	TRPML1 agonist	ClpP mod	Menin-MLL FL inh
34	COc1ccc2c(c1)c(=O)c(S(=O)(=O)c1ccc(C)cc1)cn2Cc1ccccc1C	nt	6.0	nt	-0.4	3.6%	nt
30	CC1CCCN(c2ncnc3c2cnn3-c2ccc(Cl)cc2)C1 (stereo unspecified)	-16.6%	-1.9	-4.0%	-0.8	-16.1%	3.3

In another format: entries from further up.
The line under a structure holds: gsp antag, TRPML1 blocker, gsp ag, TRPML1 agonist, ClpP mod, Menin-MLL FL inh
1	CCS(=O)(=O)Nc1ccc(C2=NN(C(=O)c3ccco3)C(c3ccco3)C2)cc1 (stereo unspecified)
 : ?, 16.3, -53.8%[inhibitor], 0.9, -4.3%, nt
2	Cc1nnc(NC(=O)CCN2C(=O)/C(=C\c3ccccc3)SC2=S)s1
 : -3.4%, 21.0, 23.5%, -0.4, 0.3%, 1.4
3	Clc1cccc(OCCN2CCN(CCOc3cccc(Cl)c3)CC2)c1
 : 0.1%, 8.7, 20.4%, 1.6, nt, 1.7
4	Cc1nc(-c2cccc(NC(=O)Cc3ccccc3)c2)cs1
 : -5.9%, -10.8, 9.4%[15.4 µM], 0.6, -16.9%, -1.5
5	Cc1ccc(Cl)cc1NC(=O)Cn1c(SCC(=O)NCc2ccccc2)nc2ccccc21
 : nt, -5.4, nt, -0.9, 2.9%, nt
6	Cn1c(-c2sccc2OCc2cccc(C(F)(F)F)c2)n[nH]c1=S
 : -19.3%, -5.1, 10.2%[15.4 µM], 0.5, nt, -0.5
7	Nn1cnn(Cc2ccccc2)c1=S
 : 4.0%, 3.3, 0.0%, 1.3, -5.1%, -3.2
8	Cc1ccc(NC(=O)c2ccc3c(c2)C(=O)N(c2ccccc2C)C3=O)nc1
 : -3.3%, -12.9, -2.8%, 1.9, -2.9%, nt

Next records.
cpd	smiles	gsp antag	TRPML1 blocker	gsp ag	TRPML1 agonist	ClpP mod	Menin-MLL FL inh
41	COC(=O)C1CCC(=O)N1C(c1ccc(OC)cc1)c1cc(OC)c(OC)c(OC)c1 (stereo unspecified)	12.6%	-7.4	36.8%	0.2	1.7%	nt
42	O=C(NCCCN1CCCCCC1)C1CCCN(S(=O)(=O)c2cccc3nsnc23)C1 (stereo unspecified)	-6.9%	-25.8	-5.2%	2.7	1.0%	-3.0
43	O=C(NCC(c1ccco1)N1CCOCC1)c1ccc(F)cc1 (stereo unspecified)	3.1%	-6.8	0.4%[15.4 µM]	0.3	nt	nt
44	NC(=O)c1ccc(Cc2ncc(C(F)(F)F)cc2Cl)s1	3.3%	-10.1	-19.5%	0.4	?	2.7
45	CSc1ccc(S(=O)(=O)N2c3ccccc3CC2C)cc1 (stereo unspecified)	-14.7%	-0.8	-46.7%[inhibitor]	?	-4.0%	4.8
46	COc1cccc(-n2cc(C(=O)NCCc3ccc(C)cc3)c3ccccc3c2=O)c1	nt	12.1	nt	1.5	-20.7%	nt
47	Cc1cccc(NC(=O)CCCCCn2c(=O)[nH]c3ccsc3c2=O)c1	nt	-3.0	nt	0.5	-2.1%	nt
48	COc1ccc(-n2ccc(=O)c(C(=O)O)n2)c(OC)c1	2.8%	5.5	17.4%	0.8	nt	-1.6
49	O=c1cc(O)n(-c2ccc(Cl)cc2)c(=S)[nH]1	6.0%	39.3	-3.6%	-0.5	1.3%	5.7
50	O=C(COC(=O)c1cc(S(=O)(=O)N2CCOCC2)ccc1Cl)NC1CCCCC1	nt	-3.5	-33.6%[inhibitor]	-0.3	-2.9%	nt
51	Cc1ccc(C)c(NC(=O)C2CCCN(S(=O)(=O)c3c(C)noc3/C=C/N(C)C)C2)c1 (stereo unspecified)	-12.7%	-4.3&20.1	-4.7%	0.7&0.3	-2.2%&-0.2%	nt
52	COC(=O)CNS(=O)(=O)c1ccc(OC)cc1	-6.5%	7.6	-5.1%	0.0	-0.8%	-0.6

From PubChem BioAssay
